AID504770: growth inhibition of E. coli YBA685, primary screen, V. cholerae RctB inhibitors | hit rate 0.27% among 130,000 | E. coli YBA685 rctB-dependent plasmid, OD600 growth, 3 h; active compounds read low | z-score (concentration not given with the values);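 active = z-score under -2 on both plates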;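 also: wells of about 30 µL received 100 nL stock; score is relative to mean and SD of the test wells; the first replicate is given; strong numbers were not always called active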
Ba CapD inh: Bacillus anthracis CapD inhibitors, primary screen, biochemical, fluorescence intensity | purified CapD enzyme, fluorescence intensity read-out; active compounds read low; some hits fall short of the stated cut | AID 492967, 2010 | CapD gamma-glutamyltranspeptidase (Bacillus anthracis Ames Ancestor) | z-score (no concentration beside the values) | hit rate 0.23% among 140,000;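 active = z-score under -4 in either of two replicates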;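 also: stock transfer was 100 nL into about 40 µL; score is relative to mean and spread of the plate; one replicate is shown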
Starred values were filed as active, the others as inactive; / = not tested or not shown.

SMILES	AID504770	Ba CapD inh
Cc1c(C#N)c(N)n(Cc2cc(C(F)(F)F)cc(C(F)(F)F)c2)c1C	0.6	-0.005
O=c1ccnc(SCc2c(Cl)cccc2Cl)[nH]1	/	-0.5
Nn1c2ccccc2n2cc(-c3ccccc3)nc12	-0.7	-0.2
c1ccc(Nc2cc(-c3ccccc3)[nH]n2)cc1	-0.55	-0.32
CSc1sc(C(N)=S)c2c1C(=O)CCC2	/	-0.59
Cc1cc(-c2cn3nc(-c4ccccc4)c(-c4ccccc4)nc3n2)c(C)n1Cc1ccco1	1.6	/
COc1ccc(/C=N/c2nc3ccccc3n2Cc2ccc(Cl)cc2)cc1OC	1.1	-0.31
Cn1cnc2c1c(=O)n(Cc1ccc(Cl)cc1)c(=O)n2C	/	-0.4
CC(Oc1ccccc1)C(=O)O (centres undefined)	0.3	-0.9
CC(=O)Oc1ccc(Nc2nc3nonc3nc2Nc2ccccc2)cc1	1.1	/
CC(C)(C)C(=O)/C=C/Nc1ccc(F)cc1	-0.45	-2.8
COC(=O)C1=C(CN(C)CCc2ccc(OC)c(OC)c2)NC(=O)NC1c1cccc(OC)c1 (centres undefined)	-0.7	/
COCCn1c(SCC(=O)N2c3ccccc3CC2C)nc2ccccc2c1=O (centres undefined)	0.7	/
COc1ccc(-c2nnc(NC(=O)c3ccc(S(=O)(=O)N(C)C)cc3)s2)c(OC)c1	/	1.2
CC(=O)[C@H]1C(=O)C[C@@](C)(O)[C@@H](C(C)=O)[C@@H]1c1ccccc1	/	0.55
COc1cccc2cc(C(=O)NCc3ccco3)c(=Nc3ccc(C(=O)O)cc3)oc12	/	0.21
CC(=O)Nc1ccc(Sc2ccccc2C(=O)Nc2ccc(F)cc2)cn1	/	-0.73
Cn1cc(C(=O)c2ccc(Cl)cc2Cl)cc1C(=O)C(Cl)(Cl)Cl	/	-0.59
N#Cc1ccccc1Sc1ccccc1C(=O)OCC(=O)NC1CC1	-0.15	/
Cc1nccc2[nH]c(=O)c(C(=O)NCCN3CCN(c4cccc(Cl)c4)CC3)cc12	-0.6	-0.8
O=C(O)c1cc2cccc3c2n(c1=O)CC3	/	5.8
COc1ccc(N2CCN(C(=O)c3ccccc3OC)CC2)cc1	-0.3	0.32
CCOC(=O)c1cnc2c(-c3ccccc3)cnn2c1C	-0.9	76
Cc1nc(N=C(N)N)sc1Br	/	-0.18
CC1CCN(CCCNC(=O)CCn2nc(-c3ccccc3)ccc2=O)CC1	-0.7	3.7
O=C(NC(CO)C(O)c1ccc([N+](=O)[O-])cc1)C(Cl)Cl (centres undefined)	/	-0.7
Cn1c(C(=O)O)ccc1S(=O)(=O)N1CCN(c2ccc(C(F)(F)F)cn2)CC1	0.3	4.8
O=C(Nc1cccc(C(F)(F)F)c1)n1nc(C(F)(F)F)c2cnccc21	-1.1	3.6
C=CS(=O)(=O)c1ccc(OC)c(N)c1	-0.9	1.4
O=C(c1cccs1)N1CCc2ccccc21	-0.2	-1.3
COc1ccc(C(=O)OCC(=O)NC23CC4CC(CC(C4)C2)C3)cc1S(=O)(=O)N1CCOCC1	-0.1	/
CCOc1ccc(Cc2nc(C)c(CC(=O)N3CCOCC3)c(=O)[nH]2)cc1	-0.15	-1.8
COc1ccc(C(=O)c2c(C)n(C)c(=O)n(C)c2=O)cc1	2.2	-1
Cc1c(-c2nc(-c3ccc(NC(=O)c4ccco4)cc3)no2)cccc1[N+](=O)[O-]	/	-0.17
CCn1cc(C(=O)O)c2ccccc21	-0.65	0.16
O=C(Cc1c(Cl)cccc1Cl)OCC(=O)c1cc2ccccc2o1	-0.65	20

Reformatted: 4 of the compounds above
> COc1ccc(C(=O)c2c(C)n(C)c(=O)n(C)c2=O)cc1
  AID504770 = 2.2
  Ba CapD inh = -1

> Cc1c(-c2nc(-c3ccc(NC(=O)c4ccco4)cc3)no2)cccc1[N+](=O)[O-]
  AID504770 = /
  Ba CapD inh = -0.17

> O=C(Nc1cccc(C(F)(F)F)c1)n1nc(C(F)(F)F)c2cnccc21
  AID504770 = -1.1
  Ba CapD inh = 3.6

> Cn1c(C(=O)O)ccc1S(=O)(=O)N1CCN(c2ccc(C(F)(F)F)cn2)CC1
  AID504770 = 0.3
  Ba CapD inh = 4.8

Carrying on.
SMILES	AID504770	Ba CapD inh
O=C(O)C1C2C=CC3(CN(c4ccccc4)C(=O)C13)O2 (centres undefined)	-0.2	-0.025
O=S(=O)(c1ccc(Br)s1)N(Cc1ccc(-c2ccccc2)cc1)Cc1ccco1	/	-0.58
COc1ccc(C(=O)Nc2ccc(CN3CCCCC3)cc2)cc1	2.4	-0.35
CCOC(=O)c1cnc2c(OC)cccc2c1Nc1cc(Cl)c(OC)cc1OC	/	-0.47
O=C(O)c1ccccc1C(=O)NC1Cc2ccccc2C1	-0.9	-0.79
OC(CNC1Cc2ccccc2C1)COc1ccc(F)cc1 (centres undefined)	-1.1	-0.62
O=C(CCn1c(=O)oc2ccccc21)N(Cc1ccccc1)c1ccccc1	-0.35	/
CC(C)NCC(O)COc1ccc(CCOCC2CC2)cc1 (centres undefined)	/	-1.3
N/C(COc1cc(Cl)cc(Cl)c1)=N\O	-0.55	0.61
Cc1ccc(-c2csc(NC(=O)c3ccccc3F)n2)cc1C	-0.6	-0.005
CC(C)c1ccc(C2C3=C(CC(C)(C)CC3=O)OC3=C2C(=O)CC(C)(C)C3)cc1	/	0.01
CN1CCC(OC(=O)c2ccc(Cl)cc2Cl)CC1	0.3	/
Cc1ccc(Oc2coc3cc(OCC(=O)N4CCCCC4)ccc3c2=O)cc1	-0.7	-1
Cc1ccc(NC(=O)c2cc(-c3ccc(O)cc3)on2)cc1	1.1	-0.96
Clc1ccc(COn2nnc3ccccc32)cc1	-0.55	-0.18
COc1ccc2oc(C(=O)OCc3cccc(S(=O)(=O)N4CCOCC4)c3)c(C)c2c1	0	/
O=CN/C(=C(/Cl)SCc1ccccc1)[P+](c1ccccc1)(c1ccccc1)c1ccccc1	/	-0.38
Cc1ccccc1NC(=O)CSCc1ccccc1	-0.95	/
C/C(=N\O)C(C)(C)Nc1ccccc1	-0.05	-0.75
Cc1ccc(C(=O)N/C(=C/c2cccc([N+](=O)[O-])c2)C(=O)NCc2ccco2)cc1	/	-0.39
O=S(=O)(NC1CC1)c1cccs1	-0.4	/
O=C1C(=Nc2ccc(F)cc2)c2ccccc2N1Cc1c(Cl)cccc1Cl	/	-0.22
Cc1ccc(CNC(=O)NCc2c(C)nn(C)c2C)cc1	-0.65	0.42
O=C(O)c1cc(Br)ccc1N=Cc1nc(-c2ccc(Cl)cc2)oc1O	/	0.39
CCCCn1c2c(c(=O)n(C)c1=O)C(c1ccc(OC)cc1)C1=C(CCCC1=O)N2 (centres undefined)	-0.1	/
ClCc1nnc(-c2ccccc2)o1	-0.85	0.18
C1=C(c2cccc3ccccc23)N2CCN=C2S1	-1.9	-0.065
CCOc1ccccc1N/C(SCc1ccccc1Cl)=C(/C#N)C(=O)NCc1cccs1	/	0.075
CSC(=Nc1ccccc1F)Nc1ccccc1F	-0.15	-0.69
Cc1ccc(/C=c2/sc3n(c2=O)C(N)=C(C#N)C(c2ccc(C)cc2)C=3C#N)cc1 (centres undefined)	/	-0.095
CC1(C)CC(NC(=O)c2ccc(C(=O)c3ccccc3)o2)CC(C)(C)N1	0.35	0.15
O=C(N/N=C\c1ccccc1OS(=O)(=O)c1ccccc1[N+](=O)[O-])C1(C(=O)N/N=C/c2ccccc2OS(=O)(=O)c2ccccc2[N+](=O)[O-])CCC1	/	-0.41
COc1ccc(CC(=O)n2c(=O)oc3ccc(C)cc32)cc1	-1.5	0.5
S=c1sscc1-c1ccccc1	0.45	-1.1
CCCN(CCC)C(=O)c1cc2c(n(-c3ccc(Cl)c(Cl)c3)c1=O)CC(C)(C)CC2=O	-0.75	0.065
c1ccc2c(c1)CN1CCCCN1C2	0.1	0.81

A second format for part of the listing above:
COc1ccc2oc(C(=O)OCc3cccc(S(=O)(=O)N4CCOCC4)c3)c(C)c2c1
  AID504770 = 0
  Ba CapD inh = /
O=CN/C(=C(/Cl)SCc1ccccc1)[P+](c1ccccc1)(c1ccccc1)c1ccccc1
  AID504770 = /
  Ba CapD inh = -0.38
Cc1ccccc1NC(=O)CSCc1ccccc1
  AID504770 = -0.95
  Ba CapD inh = /
C/C(=N\O)C(C)(C)Nc1ccccc1
  AID504770 = -0.05
  Ba CapD inh = -0.75

(further entries)
SMILES	AID504770	Ba CapD inh
NC(=O)COC(=O)CSc1ccc(Cl)cc1	-0.95	/
CC(=O)CSC1=C(C#N)C(c2sccc2C)C(C(C)=O)=C(C)N1 (centres undefined)	/	-0.04
CCC1(C)NC(=O)N(/N=C/c2ccc(OCC(=O)N3CC(C)OC(C)C3)c(OC)c2)C1=O (centres undefined)	-1.4	/
CC(C)Cn1c(=N)c(C#N)cc2c(=O)n3ccccc3nc21	-0.3	4.1
COC(=O)c1cc(=O)n(-c2ccccc2C(F)(F)F)[nH]1	-0.3	-1.6
COc1ccc(C(=O)CC2(O)C(=O)Nc3ccc(Br)cc32)c(OC)c1 (centres undefined)	/	-0.58
CN(C)S(=O)(=O)c1ccc(C(=O)NCc2ccc3[nH]c4c(c3c2)CCCC4)cc1	0.75	-0.065
O=C(Cc1ccccc1Cl)Nc1ccccn1	-0.85	0.46
N#CC1=C(N)OC2=C(C(=O)CCC2)C1c1ccccc1C(F)(F)F (centres undefined)	-0.9	/
O=C(Nc1cccc(-c2nc3ccccc3o2)c1)c1ccc(N2C(=O)C3C4C=CC(C4)C3C2=O)cc1 (centres undefined)	/	0.04
Cc1nc2n(C)c3ccccc3n2c1C(=O)OCCN1CCCCC1	-0.25	0.03
CC(C)c1ccc(NC(=S)NC2CC3CC2C2C=CCC32)cc1 (centres undefined)	/	-0.37
CC(=O)c1c(C)oc2ccc(N(C(=O)c3ccccc3Cl)S(=O)(=O)c3ccccc3)cc12	/	-0.15
N#CCn1c(=O)n(Cc2ccccc2)c(=O)c2cccnc21	1.6	-1.2
CC1CCN(C(=O)C(C)NCc2ccc(F)cc2)CC1 (centres undefined)	-0.75	/
CCOC(=O)c1c(NC(=O)c2cc(-n3cnnc3)ccc2Cl)sc2c1CCCC2	-0.55	0.35
O=C(Nc1nc2c(s1)CCCC2)c1ccc(S(=O)(=O)N2CCc3ccccc3C2)cc1	/	-0.52
O=C(c1ccc(Cl)cc1)C1CCN(C(=O)OCCCCCc2ccccc2)CC1	/	-0.57
CS(=O)(=O)c1ccccc1Oc1ncc(C(F)(F)F)cc1Cl	/	-0.67
CS(=O)(=O)N1Cc2ccccc2CC1C(=O)OCC(=O)Nc1ccc(OC(F)(F)F)cc1 (centres undefined)	-0.1	/
CCOC(=O)C1=C(C)OC(N)=C(C#N)C1c1ccccc1 (centres undefined)	/	0.055
CN(C(=S)NC(=O)c1ccccc1)c1ccc(OC(F)(F)F)cc1	1.9	-0.68
COc1cc(C(F)(F)F)cc(C(F)(F)F)c1C(=O)N1CCC(C(=O)c2ccc(Cl)cc2)CC1	-0.4	0.21
O=C(CSc1nc2sc3c(c2c(=O)n1-c1ccccc1)CCC3)N1CCOCC1	/	3
Cc1cc(C)nc(N2CCN(Cc3ccnc(Cl)c3)CC2)n1	/	-0.5
O=C1C(=O)N(c2cccc(C(F)(F)F)c2)C(c2ccccc2F)/C1=C(\O)c1ccc(Cl)cc1 (centres undefined)	/	-0.28
Cc1ccc(S(=O)(=O)N2CCN(S(=O)(=O)c3ccc(C)cc3)C2)cc1	-1.3	-1.2
OCCC12CC3CC(C1)CC(CCO)(C3)C2	-0.3	0.23
CN1CCN(c2ncnc3scc(-c4ccc(-c5ccccc5)cc4)c23)CC1	/	-0.005
FC(F)(F)c1cccc(-n2c(Cn3nnc(N4CCOCC4)n3)n[nH]c2=S)c1	-0.75	0.26
Cc1cc(NC(=O)OCC(F)(F)F)no1	1	/
O=C(O)CCN(Cc1ccccc1)S(=O)(=O)c1cccc(C(F)(F)F)c1	0.25	/
CCSc1nnc2c(n1)OC(c1cccs1)Nc1ccccc1-2 (centres undefined)	/	-0.3
O=c1cc2[nH][nH]c(=S)n2c(=O)[nH]1	-0.05	/
COc1ccc(C2Nc3ccccc3C(=O)N2c2ccc(Cl)cc2)cc1CN1CCOCC1 (centres undefined)	/	18
Cc1ccc(C)c(Cc2c(C)nc3c(C(=O)NC4CC4)cnn3c2C)c1	-0.15	0.42
O=C(Nc1ccccc1)NC1CCCCNC1=O (centres undefined)	/	0.58
CCOC(=O)c1cn(C)c(=O)c2ccccc12	-0.6	11
CC1=CC2=NC(=O)/C(=C\c3ccco3)C(=N)N2O1	0.65	-2.3
CC1(C)CC(=NO)CC(C)(C)[NH+]1[O-] (centres undefined)	-0.5	0.16
COc1cc(/C=c2/sc3nc(-c4ccccc4)c(-c4ccccc4)n3c2=O)ccc1OCC(=O)O	/	-0.32
CCCc1oc2cc(OCC(=O)OC)c(CC)cc2c(=O)c1-c1ccc2c(c1)OCCCO2	/	-1.7
CCOC(=O)c1sc(NC(=O)CC)c(C(=O)OCC)c1C	-0.1	0.45
CCc1ccc(-c2ccc(C#N)cc2)nc1	-1.1	-0.51
COC(=O)C1=C(C)NC(C)=C(C(=O)OC)C1c1cn(-c2ccccc2)nc1-c1ccc(S(=O)(=O)N2CCOCC2)cc1	/	0.29
CCCCOc1ccc(C2C(N3C(=O)c4ccccc4C3=O)C(=O)N2c2ccc(Cl)cc2)cc1 (centres undefined)	/	-0.22
COc1c(NC(C)=O)oc2ccccc12	-0.15	/
COC(=O)c1sccc1NC(=O)CN1CCN(c2ccccc2F)CC1	/	0.04

Screens deposited in PubChem BioAssay by ICCB-Longwood Screening Facility, Harvard Medical School.

Outcome played no part in choosing rows. Share with any hit: about 0.41%.
